NPYLR7 ag = activates Aedes aegypti NPYLR7 receptor; HEK293T NPYLR7/Galpha15, GCaMP6s calcium fluorescence; activation, % at 10 µM; 270,000 compounds, 0.15% hits; AID 1259423; in the data active = activation above about 40%;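 also: 0% = vehicle and 100% = reference agonist at the receptor; some compounds past the cut are filed as inactive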
NPYLR7 ag max-min = also measured in NPYLR7 ag; calls as there; activation, %; measured here: Max-Min RFU normalised activation; some inactives read as strong as hits;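 span of the calcium signal over five minutes; 0% = vehicle and 100% = native peptide agonist; compound fluorescence can raise it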
* = called active by the depositor; & = joins results of further samples. The list is partial; count on the stated rates, not on these rows.

Under each structure: NPYLR7 ag max-min	NPYLR7 ag
> CC(C)NC(=O)C1CCN(C2CCN(Cc3cc4ccccc4o3)CC2)CC1
  3.5	8.1
> CCOc1ccc2ccccc2c1C(=O)N1CCN(c2nccc(-c3cccc(C(F)(F)F)c3)n2)CC1
  0.6	10.1
> C[C@@]1(O)CCN(C(=O)c2cnc3ccccc3c2)C[C@@H]1Cc1ccccc1
  -1.6	3.3
> CCOC(=O)c1ccccc1NC(=O)CSc1c(COC)cnc2c1c(=O)n(C)c(=O)n2C
  13.9	8.5
> CCSc1nn(CC(=O)Nc2ccc(C)cc2)c(N)c1S(=O)(=O)c1ccc(C)cc1
  -5.3	-1.3
> Cc1ncoc1C(=O)N1CCCCC1C(=O)Nc1ccc(Oc2ccccc2F)cc1 (stereo unspecified)
  0.8	6.2
> OC(COc1ccc(Br)cc1)Cn1ccnc1 (stereo unspecified)
  3.4	12.4
> CN(CCC(O)c1ccccc1)Cc1ccc(Cl)s1 (stereo unspecified)
  2.8	3.5
> CC(c1ccc(F)cc1F)N1CCC(C(=O)Nc2nccs2)CC1 (stereo unspecified)
  1.9	1.8
> CN(CC(=O)OCC(=O)NNC(=O)c1cccs1)S(=O)(=O)c1ccc(Cl)cc1
  10.2	4.7
> CCCc1nn(-c2ccc(Cl)cc2)c(C)c1C(=O)O
  14.7	5.2
> O=C(Nc1ccc2c(c1)CCC2)c1cc(S(=O)(=O)N2CCCCC2)ccc1Cl
  -1.1	0.0
> CCc1nccn1CC(=O)N1CCNCC1C(=O)N1CCCC1 (stereo unspecified)
  -3.1	-2.0
> Cc1cc(=O)n2c(n1)SCC2CC(=O)Nc1nccs1 (stereo unspecified)
  -4.5	-3.6
> Cc1ccc(CNC(=O)Nc2nnc([C@@H]3C[C@H](O)[C@@H](CO)O3)s2)cc1
  -4.3	-1.1
> O=C(CNC(=O)C12CC3CC(CC(C3)C1)C2)N1CCC(C2OCCO2)CC1
  8.7	10.1
> CC(c1ccc(Cl)cc1Cl)N(C)S(=O)(=O)N1CCCCC1 (stereo unspecified)
  0.3	1.9
> CC1=C(C(=O)OCC(C)C)C(c2cccc(F)c2)C2=C(CC(c3ccccc3)CC2=O)N1 (stereo unspecified)
  9.7	6.0
> CC(C)c1nc2sc3c(NCC4CCCO4)ncnc3c2c2c1COC(C)(C)C2 (stereo unspecified)
  -2.7	1.8
> CC(C)(C)Nc1c(-c2cccs2)nc2ccc(Cl)cn12
  13.0	4.8
> COCCNC(=O)C(NC(=O)CC(C)C)C1CCN(C(=O)CCc2ccccc2)CC1 (stereo unspecified)
  5.7	4.9
> CCc1ccc(-n2c(C(CC)N(CCc3ccc(OC)c(OC)c3)C(=O)C3CCCC3)nc3ccccc3c2=O)cc1 (stereo unspecified)
  26.6	28.6
> O=C(c1ccc(Cl)nc1)N1CCN(c2nc3nccc(-c4cccnc4)n3n2)CC1
  1.4	4.1
> Cc1ncc(C(=O)NCCN2CCC(C)CC2)c(Cl)c1Br
  5.0	10.8
> Cc1cc(C(=O)CSc2nnnn2C2CCCC2)c(C)n1-c1ncn[nH]1
  15.8	19.4
> Cc1ccccc1-c1cnc(-c2cccnc2)nc1C1CCN(C(=O)c2scc3c2CCCC3)CC1
  1.4	22.2
> CCN(C=Nc1sc2c(c1C#N)CC(C)(C)NC2(C)C)CC
  0.7	2.7
> CCCS(=O)(=O)Nc1ccc(N(C)C)c(CN(Cc2cccc(F)c2)C(=O)COC)c1
  6.3	-1.4
> COc1ccc([N+](=O)[O-])cc1CN1CCCn2cccc2C1c1ccccc1[N+](=O)[O-] (stereo unspecified)
  21.3	5.4
> COc1cn(CC(=O)Nc2ccc3c(c2)OCO3)c(CSc2nccc(C)n2)cc1=O
  -8.7	-2.9
> CN1CCN(n2c3c(c(SCc4ccc([N+](=O)[O-])cc4)nc2=O)CCCC3)CC1
  -11.5	-4.9
> CC(C)CN1CCNC(=O)C1CC(=O)N(C)Cc1cc(-c2ccccc2)n[nH]1 (stereo unspecified)
  5.3	9.3
> CCCOC(=NCCN(C)C)NC(=O)c1ccc2c(c1)OCO2
  -2.9	-4.2
> COc1ccc(C(=O)NNC(=O)C(NS(=O)(=O)c2cccs2)C(C)C)cc1 (stereo unspecified)
  4.9	1.3
> O=c1oc2cc(O)ccc2cc1-c1nnc(Nc2ccc(Oc3ccc(Cl)c4ccccc34)c(Cl)c2)s1
  9.0	3.3
> CCCCc1ccc(NC(=O)c2cc(=O)c(OCc3ccc(F)cc3)c[nH]2)cc1
  4.7	7.3
> CC(=O)Oc1ccccc1CSc1nc2cc(S(=O)(=O)N3CCOCC3)ccc2n1CCCN1CCOCC1
  6.6	6.5
> FC(F)(F)c1ccc(Nc2cnn(Cc3ccccc3)c2)nc1
  1.0	2.8
> Cc1cc(Cl)ccc1OCCCC(=O)NO
  -9.3	-4.8
> O=C(NCCC1COc2ccccc2O1)c1ccc(NCc2ccccn2)nc1 (stereo unspecified)
  5.0	7.6
> Cc1cc(C)n2nc(C(=O)N(CC3CCC(=O)N3)C(C)C)cc2n1 (stereo unspecified)
  2.1	3.0
> CCCn1nc(N)c2ccccc21
  20.0	24.7
> Cc1cc(C)c(S(=O)(=O)Nc2ccc(C3SCC(=O)N3c3ccc(F)cc3)cc2)c(C)c1 (stereo unspecified)
  11.4	5.3
> COc1ncc([C@@H]2C[C@H](NC(C)=O)C[C@H](c3cc(F)cc(F)c3)O2)cn1
  -3.5	-1.8
> Cc1ccc2nc(COc3cccc4c3CCCC4O)cc(=O)n2c1 (stereo unspecified)
  -1.5	-1.1
> C=CCNC(=O)NC(=O)CN(C1CC1)C(C)c1ccccc1Cl (stereo unspecified)
  -4.9	-2.9
> CCc1cccc(NC(=O)CCC(=O)N(C)Cc2nc3ccccc3n2C)c1
  4.2	14.5
> Cc1ccccc1NCC(=O)N/N=C/c1cc(Br)c(O)c(Br)c1O
  8.5	7.5
> COc1cc(-c2cc(=O)c3c(O)c(OC)c(OC)c(OC)c3o2)cc(OC)c1OC
  -9.1	-3.0
> CC(C)n1cc(C(=O)N2CCOC(c3ccc(Cl)cc3)C2)cn1 (stereo unspecified)
  4.5	7.1

Given with bars between the fields: part of the list above
molecule | NPYLR7 ag max-min | NPYLR7 ag
CCc1ccc(-n2c(C(CC)N(CCc3ccc(OC)c(OC)c3)C(=O)C3CCCC3)nc3ccccc3c2=O)cc1 (stereo unspecified) | 26.6 | 28.6
O=C(c1ccc(Cl)nc1)N1CCN(c2nc3nccc(-c4cccnc4)n3n2)CC1 | 1.4 | 4.1

Continued.
Under each structure: NPYLR7 ag max-min	NPYLR7 ag
> O=C(c1ccc(CSc2nc3ccc([N+](=O)[O-])cc3s2)cc1)N1C2CCC1CC(Oc1ccc3c(c1)OCO3)C2 (stereo unspecified)
  -11.0	-0.3
> Cc1ccc(N=Cc2nc(-c3ccccc3F)oc2O)c(Br)c1
  -9.3	-3.7
> O=C(CSc1ccncc1)NC1CC(=O)N(CC2CCCCC2)C1 (stereo unspecified)
  1.1	5.5
> Cc1cnc2c(c1NCCC1=CCCCC1)c(=O)n(C)c(=O)n2C
  1.7	6.9
> COc1cccc(CSc2nnc(C(C)NS(=O)(=O)c3ccc(F)cc3)n2-c2ccc(C)cc2)c1 (stereo unspecified)
  16.0	17.1
> C#CCCC(=O)N1CCC(n2cnc3ccc(C)cc32)CC1
  3.7	-2.6
> C=CCOC(=O)C1=C(C)NC2=C(C(=O)CCC2)C1c1cc(OC)c(OC)cc1[N+](=O)[O-] (stereo unspecified)
  -7.8	-6.9
> CC(=O)Nc1ccc(SCc2cccc(C(F)(F)F)c2)nn1
  0.1	0.3
> CCC(Oc1ccccc1)C(=O)NCc1cccnc1N1CCOCC1 (stereo unspecified)
  -1.8	-1.0
> O=C(NCc1ccc(F)c(C(F)(F)F)c1)C1CC12c1ccccc1-c1ccccc12 (stereo unspecified)
  -18.2	-12.4

In the list so far, four have bromine.
Under each structure: NPYLR7 ag max-min	NPYLR7 ag
> OC(COc1ccc(Br)cc1)Cn1ccnc1 (stereo unspecified)
  3.4	12.4
> Cc1ncc(C(=O)NCCN2CCC(C)CC2)c(Cl)c1Br
  5.0	10.8
> Cc1ccccc1NCC(=O)N/N=C/c1cc(Br)c(O)c(Br)c1O
  8.5	7.5
> Cc1ccc(N=Cc2nc(-c3ccccc3F)oc2O)c(Br)c1
  -9.3	-3.7

Other structures
Under each structure: NPYLR7 ag max-min	NPYLR7 ag
> Cc1ccc(C(=O)CN2C(=O)NC3(CCCCC3C)C2=O)s1 (stereo unspecified)
  3.3	-0.8
> CC1(C(=O)NS(=O)(=O)c2ccccc2)CCN1C(=O)Cc1cccc2ccccc12 (stereo unspecified)
  -1.0	1.4
> COc1ccc(S(=O)(=O)NCC2CCCO2)cc1N1CCN(S(=O)(=O)c2ccc(Br)cc2)CC1 (stereo unspecified)
  -5.0	-0.2
> CC1Cc2cc(-c3nccn3CCc3nc(-c4ccncc4)n[nH]3)ccc2O1 (stereo unspecified)
  -3.5	-1.0
> COc1ccc(S(=O)(=O)NC(=O)C2(C)CCN2C(=O)C2CC2)cc1 (stereo unspecified)
  3.4	1.8
> O=C(CCc1ncc(-c2ccc(F)cc2F)o1)Nc1nc2ccccc2s1
  16.4	12.6
> COC(=O)c1csc(CN(C(=O)Nc2ccc(Cl)cc2Cl)C2CCCCC2)n1
  0.2	-5.0
> Cc1[nH]c2ccc(C(=O)N3CCN(Cc4ccc5c(c4)OCO5)CC3)cc2c1C
  -1.4	0.8
> COc1cc(OC)cc(C(=O)N2CCN(c3ccc(C)cc3C)C(=O)C2C)c1 (stereo unspecified)
  3.2	0.9
> CC(C)C(NC(=O)c1ccc(C(C)(C)C)cc1)C(=O)Nc1cccnc1 (stereo unspecified)
  -0.1	0.1

The closing four compounds of the section before lead into the next:
Under each structure: NPYLR7 ag max-min	NPYLR7 ag
> COC(=O)c1csc(CN(C(=O)Nc2ccc(Cl)cc2Cl)C2CCCCC2)n1
  0.2	-5.0
> Cc1[nH]c2ccc(C(=O)N3CCN(Cc4ccc5c(c4)OCO5)CC3)cc2c1C
  -1.4	0.8
> COc1cc(OC)cc(C(=O)N2CCN(c3ccc(C)cc3C)C(=O)C2C)c1 (stereo unspecified)
  3.2	0.9
> CC(C)C(NC(=O)c1ccc(C(C)(C)C)cc1)C(=O)Nc1cccnc1 (stereo unspecified)
  -0.1	0.1
> CCCN(CCn1nc2ccccn2c1=O)CC(=O)Nc1cc(Cl)ccc1Cl
  -0.8	-3.1
> Cc1ccc(CN2CCNC(=O)C2CC(=O)NCC2(c3ccccc3)CCOCC2)o1 (stereo unspecified)
  -1.5	-0.8
> Cc1ccc(C2(O)CCN(C(=O)c3cnnn3-c3ccccc3)CC2)nc1
  -7.9	-4.6
> COC(=O)c1ccc(-c2noc(CN(C)CCc3cnn(C)c3)n2)cc1
  -1.4	1.4
> Cc1ccc(C(=O)OCC(=O)c2ccc(Br)cc2)cc1C
  2.1	7.9
> Cn1cccc1C(=O)N1CCC(CCc2ccccc2)CC1
  4.4	1.5
> COc1cc(CNc2ccc3ncc(-c4ccccc4Oc4ccccc4)n3n2)cc(OC)c1OC
  0.0	6.4
> CC(C)c1ccccc1NC(=O)CCC(=O)N1CCc2ccccc2C1
  -22.4	-11.2
> Cc1cccnc1CC(C)NC(=O)c1cc(C(C)C)nc(N)n1 (stereo unspecified)
  -2.1	-2.6
> O=C1CCCN1CCC(=O)N1CCCC(CO)(Cc2ccccc2)C1 (stereo unspecified)
  -0.2	6.3
> O=S(=O)(c1cccs1)N1CN(Cc2ccccc2)c2nc3ccccc3nc21
  -6.1	2.1
> CCOc1nc2cccc(C(=O)O)c2n1Cc1ccc(-c2ccccc2-c2nn[nH]n2)cc1
  2.9&-15.6	-12.4&-12.7
> O=C(c1csc2c1CCCC2)N1CCCC(Nc2ccccc2)C1 (stereo unspecified)
  -6.9	-5.5
> COc1ccc(N=c2ccccn2C)cc1
  5.6	11.5
> CCc1nc(-c2ccccc2)nc(N2CCN(C(=O)COC)CC2)c1Cc1cc(C)ccc1C
  12.6	0.3
> COc1cccc(CC2(C(=O)O)CCN(Cc3cccnc3)CC2)c1
  -3.1	5.5
> Cc1c(C)n2c3c(=O)n(C)c(=O)n(C)c3nc2n1CCN1CCN(c2ccccc2)CC1
  -11.1	-10.1
> Cc1cnc2c(Cl)c(C(=O)N3CCc4c(ncnc4N(C)C)C3)nn2c1
  -7.1	-2.4
> O=C(CCc1nc2ccccc2s1)NCc1nc(NC2CCCC2)c2cc(Cl)ccc2n1
  0.0	5.0
> CC(C)NC(=S)NN=C1CCCCC1
  -3.9	-1.8
> O=C(NCC(c1ccccc1)C1CCCC1)c1cccnc1 (stereo unspecified)
  -2.0	-1.1
> COc1cc(C=C2SC(=O)N(CCNC(=O)c3snnc3C)C2=O)ccc1OC(F)F
  -6.8	-2.1
> Cc1cc(Oc2ccc3c(c2)CCC(=O)N3)nc(C)n1
  -1.6	0.3
> O=C(c1ccc(Cl)cc1Cl)N(CCN1CCOCC1)CC(=O)N(Cc1cccn1Cc1ccccc1)C1CC1
  8.5	11.1
> Cc1ccn2cc(C(=O)Nc3ccccc3NCC(F)(F)F)nc2c1
  3.6	4.0
> COCCN(C(=O)c1ccc(C)c(NC(=O)C2CC2)c1)C(C)C
  1.0	4.3
> Cc1ccc(-c2nc3c(c(=O)[nH]2)Cc2cc(Cl)ccc2O3)cc1
  -8.6	-6.0
> O=C(C=Cc1cccs1)Nc1c(F)cccc1F
  30.1	39.9
> Cc1ccccc1C(c1ncccc1C)N(C)C(=O)C1CCN(CCN2CCOCC2)CC1 (stereo unspecified)
  -0.2	1.9
> CCCc1cc(CNC(=O)CC2CCc3ccccc32)on1 (stereo unspecified)
  13.1	15.0
> CCOC(=O)C1(C)CCN1C(=O)c1cccc(OC(F)(F)F)c1 (stereo unspecified)
  -10.6	-5.7
> COc1ccc(/C=C/C(=O)NNC(=O)COc2ccc(C)c(C)c2)cc1
  -8.4	-6.5
> CCCNC(=O)CN(C)CC(=O)c1c(N)n(CCC)c(=O)n(C)c1=O
  -6.8	-6.7

Screens: PubChem, Fisher Drug Discovery Resource Center
